Cruzain inh Det = qHTS Assay for Promiscuous and Specific Inhibitors of Cruzain (with detergent); Potency, µM, inactives show max response, negative = inhibition, actives largely listed as inhibitors; purified cruzain, Z-FR-AMC fluorescence, 0.01% Triton; actives 0.43% (n = 200,000); Cruzipain (Trypanosoma cruzi), P25779; active = well fitted curve in the direction sought with a large enough effect; inconclusive = small, poorly fitted or top-dose-only effect, or another doubt; inactive = no such curve, though single readings can be large; an effect the other way counts as inactive or inconclusive;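 note: plate controls were neutral wells for no effect and buffer without enzyme for full effect; nearly all actives have a fitted effect of over 40% in size; top concentration of the series not given in the record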
Target sequence (P25779 123-467 limits assumed): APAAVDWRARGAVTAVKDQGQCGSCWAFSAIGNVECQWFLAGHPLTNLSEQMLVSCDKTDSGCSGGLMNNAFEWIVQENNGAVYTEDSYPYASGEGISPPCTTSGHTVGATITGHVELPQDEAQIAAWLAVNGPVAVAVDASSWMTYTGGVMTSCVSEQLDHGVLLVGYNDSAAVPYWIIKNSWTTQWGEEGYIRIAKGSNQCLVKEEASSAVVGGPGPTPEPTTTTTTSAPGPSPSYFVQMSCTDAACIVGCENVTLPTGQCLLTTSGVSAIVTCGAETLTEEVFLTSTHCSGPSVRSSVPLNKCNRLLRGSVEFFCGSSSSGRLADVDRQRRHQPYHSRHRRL
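Detergent-containing arm of a paired screen for aggregation-based inhibition: 0.01% Triton X-100 present. Cruzain at 1.5 nM cleaved 2 uM Z-FR-AMC at pH 5.5 with 5 mM DTT; AMC fluorescence gain over 60 s measured activity.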
LASV entry inh = qHTS for Inhibitors of binding or entry into cells for Lassa Virus | Lassa virus pseudotype entry inhibition, cell reporter; control for the full effect not named in the record | Potency, µM (top dose mostly 37.9 µM), for inactives: at the top dose activity change, negative = inhibition, most hits filed as inhibitors | actives 1.2% (n = 300,000) | AID 540256, 2011; active means well fitted inhibition curve with a large enough effect; inconclusive means small, poorly fitted or top-dose-only effect, or effect the other way; inactive means flat fitted curve, though single readings scatter; tested in HEK293 cells; note: % is set by controls: 0 for no effect and ±100 for the full control effect; nearly all actives have a fitted effect of over 50% in size; luciferase read-out
2A StopGo = High Throughput Screening for Foot and Mouth Disease Virus Antivirals | actives 1.2% (n = 410,000) | AID 1159524, 2015 | Potency, µM (series often up to 57.9 µM), for inactives: top-dose signal change, negative = less light | human cells with a luciferase reporter of 2A StopGo recoding; control for the full effect not named in the record; active = well fitted falling curve with a large enough effect; inconclusive = small, poorly fitted or top-dose-only effect; inactive = no such curve, though single readings can be large or run the other way; tested in HEK293T cells; note: % is set by controls: 0 for no effect and ±100 for the full control effect; nearly all actives have a fitted effect of over 45% in size; luciferase light after 4 h
SARS PLpro yeast = qHTS of Yeast-based Assay for SARS-CoV PLP. Potency, µM (titrated, usually from 32.9 µM), inactives show top-dose activity, positive = growth rescue. AID 485353, 2010. S. cerevisiae expressing SARS-CoV PLpro, growth rescue; control for the full effect not named in the record. actives 0.19% (n = 330,000); note: 0% is about no effect; nearly all actives have a fitted effect of over 55% in size; growth read by luminescence after 48 h
RE007 growth inh = qHTS Assay for Inhibitors of the HIV-1 protein Vpr | S. pombe RE007 Vpr strain, BacTiter-Glo ATP luminescence, 24 h; control for the full effect not named in the record | actives 0.21% (n = 360,000) | Potency, µM (series often up to 92.2 µM), inactives show at the top dose activity change, negative = less growth | AID 651644, 2012; active = well fitted falling curve with a large enough effect; inconclusive = small, poorly fitted or top-dose-only effect; inactive = no such curve, though single readings can be large or run the other way;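 note: % is set by controls: 0 for no effect and ±100 for the full control effect; nearly all actives have a fitted effect of over 50% in size; the assay follows cell death caused by Vpr and the record does not say whether a fall means rescue or toxicity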
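Fission yeast strain RE007, carrying one chromosomally integrated HIV-1 vpr copy, was seeded at OD 0.01 in PMG+AL medium with 23 nL pinned compound. After 24 h at 30 °C and 99% humidity, viability was read by BacTiter-Glo luminescence.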
NS1 function inh = qHTS Assay for Inhibitors of Influenza NS1 Protein Function | S. cerevisiae slowed by influenza A NS1, growth recovery by OD600 | Potency, µM (titrated, usually from 46.1 µM), for the others: at the top dose activity, positive = more growth | actives 0.4% (n = 270,000); note: actives are rising curves; nearly all actives have a fitted effect of over 50% in size
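A cell-based growth assay was used: compounds that relieve NS1-induced slow growth of budding yeast raise OD600. Assay medium was yeast nitrogen base with ammonium sulphate and -URA supplement, pH 6.0, with 2% galactose.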
Cruzain inh noDet = qHTS Assay for Promiscuous and Specific Inhibitors of Cruzain (without detergent) | purified cruzain, Z-FR-AMC fluorescence, no detergent | Potency, µM, for inactives: max response, negative = inhibition, usual class: inhibitors | actives 2.3% (n = 200,000) | Cruzipain (Trypanosoma cruzi), P25779; active = well fitted curve in the direction sought with a large enough effect; inconclusive = small, poorly fitted or top-dose-only effect, or another doubt; inactive = no such curve, though single readings can be large; an effect the other way counts as inactive or inconclusive;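 note: plate controls were enzyme without inhibitor for no effect and buffer without enzyme for full effect; nearly all actives have a fitted effect of over 40% in size; top concentration of the series not given in the record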
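Purified cruzain at 1.5 nM, pre-incubated 15 min with compound at room temperature in 100 mM sodium acetate pH 5.5, 5 mM DTT, 0.00005% Triton X-100. Reaction started with 2 uM Z-FR-AMC; AMC fluorescence increase over 60 s gives rate.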
MARV entry inh = qHTS for inhibitors of binding or entry into cells for Marburg Virus; AID 540276, 2011; Marburg virus pseudotyped entry inhibition, cell reporter; control for the full effect not named in the record; about a third of the inactives were read at about 46 µM; Potency, µM (titrated, usually from 37.8 µM), for the others: at the top dose activity change, negative = inhibition, actives largely listed as inhibitors; actives 1.8% (n = 300,000); active = well fitted inhibition curve with a large enough effect; inconclusive = small, poorly fitted or top-dose-only effect, or effect the other way; inactive = flat fitted curve, though single readings scatter; tested in HEK293 cells; about a fifth of its hits are not listed in these tables; note: % is set by controls: 0 for no effect and ±100 for the full control effect; luciferase read-out
Active calls of the source: *; ? = inconclusive; . = no result given; & = joins results of further samples; [ ] = another dose, or the depositor's remark. Unless noted, calls come from the whole dose curve; as a rule, active means well fitted rising curve with a large enough effect; inconclusive means small, poorly fitted or top-dose-only effect; inactive means no such curve, though single readings can be large or run the other way. Potency is the fitted concentration of half-maximal effect.

SMILES	Cruzain inh Det	LASV entry inh	2A StopGo	SARS PLpro yeast	RE007 growth inh	NS1 function inh	Cruzain inh noDet	MARV entry inh
CC(C)=C(NC(=O)c1ccccc1Br)C(=O)NCCc1nc2ccccc2[nH]1	.	-3%	8%	1%	8%	-1%	.	-7%
COc1ccccc1NC(=O)C(C)NS(=O)(=O)c1ccc(F)cc1 (stereo not drawn)	-0.9%	-2%	-11%	5%	0%	9%	-2%	-3%
CCOC(=O)N1CCN(C(=O)c2c(C)nn(-c3cccc(C)c3)c2-n2cccc2)CC1	0.7%	-7%[46.1 µM]	-24%	.	.	.	?	.
CCc1c(C)c2ccc(OCC(=O)NCC3CCC(C(=O)O)CC3)c(C)c2oc1=O (stereo not drawn)	.	.	-16%	-5%	2%	-13%	.	.
CCn1c(CNc2nc(-c3ccccc3)cs2)nnc1SCC(=O)NCc1ccco1	-7.3%	14%	4%	17%	24%	10%	17%	28%
O=C(NCCC1=CCCCC1)c1ccc2c(c1)N(Cc1ccccc1F)C(=O)c1ccccc1S2(=O)=O	-0.5%	?	-14%	.	.	.	?	?
O=C(NOCc1cscn1)Nc1ccccc1	.	4%	28%	.	8%	.	.	6%
CCOC(=O)N1CCN(C(=O)CCS(=O)(=O)c2cc3c(cc2Cl)NC(=O)CO3)CC1	.	.	0%	?	-8%	-7%	.	.
C[C@]12CCC(=O)C=C1CCC1C2CC[C@@]2(C)C1CC[C@@]2(O)CC#N (stereo partly drawn)	0.2%	3%	?	-8%	4%	11%	8%	-9%
O=C1CCc2nc3ccccc3c(=O)n2N1	-1.9%	18%	-17%	10%	-2%	21%	2%	10%[46.1 µM]
c1ccc(-c2nc3c([nH]2)CCc2nonc2-3)cc1	.	29%	21%	2%	-5%	.	.	?
CC(=O)Nc1ccc(S(=O)(=O)N2CCN(c3ccc([N+](=O)[O-])cc3)CC2)cc1	.	.	?	1%	-11%	-1%	.	.
CCc1c(C)sc(NC(=O)/C=C/c2ccc3c(c2)OCO3)c1C(=O)OC	-9.9%	-1%	-21%	-2%	24%	1%	?	-15%
COc1ccccc1NC(=O)CS(=O)(=O)c1cn(CC(=O)N2CCCC2)c2ccccc12	.	2%	-11%	0%	-6%	12%	.	3%
O=C(CC(Nc1ccccc1)c1ccc(F)cc1)c1ccccc1 (stereo not drawn)	-2.2%	-1%	16%	2%	-7%	13%	-14%	-17%
COc1ccc(/C=N/Nc2nc3ccccc3c(=O)n2-c2ccccc2)cc1OC	-7.0%	?	?	-1%	?	?	-2%	?
COc1cc(/C=N/N2CCN(Cc3ccc(C)cc3)CC2)cc(OC)c1O	.	.	-27%	7%	14%	21%	.	.
O=C(COC(=O)C1CC(=O)N(Cc2ccccc2)C1)Nc1ccc2c(c1)OCO2 (stereo not drawn)	7.7%	1%	9%	-3%	9%	-4%	-4%	13%
COc1ccccc1-c1nnc(SCC(=O)N2CCCCC2)o1	.	?	32%[activator]	4%	4%	7%	.	-11%
O=C(O)COc1ccccc1C(Nc1ccccn1)c1cc(Cl)c2cccnc2c1O (stereo not drawn)	-2.1%	-4%	-18%	5µM*	-3%	26%	?	14%
COc1ccc([N+](=O)[O-])cc1N(CC(=O)N1CCOCC1)S(C)(=O)=O	.	0%	-1%	1%	-14%	2%	.	-25%[46.1 µM]
Cc1cc(Cl)c(OCCCN(C)C)c(Br)c1	0.1%	-19%	-16%	-6%	.	4%	5µM*	?
COC(=O)C1=C(C)N(Cc2ccccc2)C(=NCc2cccc(Cl)c2)N[C@H]1c1ccccc1	.	.	-19%	-9%&-1%&1%	-12%	0%&8%	.	.
O=C(NCc1ccc(Cl)cc1)c1ccc(-c2ccccc2C(F)(F)F)o1	-7.0%	5.2µM*	-19%	-5%	-6%	1%	-5%	11%
COc1cccc(CNC(=O)CN2C(=O)COc3ccc(S(=O)(=O)N4CCC(C)CC4)cc32)c1	.	8%[46.1 µM]	-2%	1%	-9%	0%	.	-25%[46.1 µM]
Cc1ccc2[nH]c3c(=O)n(CC(=O)N4CCCCC4)ncc3c2c1	-0.6%	-4%[46.1 µM]	-2%	.	.	.	-10%	.
CC(C)(CNc1ccc(C(F)(F)F)cc1[N+](=O)[O-])N1CCOCC1	.	.	?	-1%	2%	7%	.	.
COc1ccc(NC(=O)C(=O)NNC(=O)c2cccs2)cc1	-4.2%	1%	23%	-30%	9%	-7%	-4%	?
Cc1ccc(S(=O)(=O)N(C)C)cc1NC(=O)CN1C(=O)NC2(CCCCCCC2)C1=O	.	20%	-23%	4%	0%	4%	.	0%
Cc1[nH]n(-c2cccc(Cl)c2)c(=O)c1C=NCc1ccco1	.	?	61%[activator]	-1%	-22%	-6%	.	?
COc1ccc(CNC(=O)CN2C(=O)NC(C)(c3cccc4ccccc34)C2=O)cc1OC (stereo not drawn)	.	?	-17%	-30%	3%	-1%	.	-25%
Cc1cccc(CCNC(=O)CCc2c(C)nc3c(c(C)nn3-c3ccccc3)c2C)c1	-2.3%	0%[46.1 µM]	?	.	.	.	1%	?
COc1ccc(CNC(=O)Cn2cccc2C(=O)c2ccccc2C)cc1	-10.0%	-15%[46.1 µM]	7%&39%	-4%	10%	-11%	-7%	?
Cc1ccc(OCC(=O)Nc2ccccc2F)cc1	.	?	11%	.	-24%	.	.	-26%
COc1cc(OC)c(C(=O)OCC(=O)NC2CCCC2)cc1OC	.	24%[46.1 µM]	14%	2%	-2%	1%	.	1%[46.1 µM]
CC(Cc1ccccc1)NC(=O)c1ccc([N+](=O)[O-])cc1 (stereo not drawn)	1.5%	-18%	17%	-1%	-4%	-5%	-12%	?
COc1ccc(-c2noc(CC(=O)Nc3ccc(F)cc3F)n2)cc1	-3.4%	-16%[46.1 µM]	-24%	.	.	.	?	.
CCC1SC(N)=NC1=O (stereo not drawn)	-2.2%	-4%	-22%	3%	-9%	6%	3%	5%
CC1(C)CC(=O)C(C2C3=C(CC(C)(C)CC3=O)Oc3ccccc32)=C(O)C1 (stereo not drawn)	-0.2%	12%	-14%	1%	-1%	2%	9%	-21%
COc1ccc(NC(=O)c2csc3c2CCCCC3)cc1	-3.3%	.	12%	.	.	.	-11%	19%[46.1 µM]

Given field by field: entries from further up.
> CC(Cc1ccccc1)NC(=O)c1ccc([N+](=O)[O-])cc1 (stereo not drawn)
  Cruzain inh Det: 1.5% | LASV entry inh: -18% | 2A StopGo: 17% | SARS PLpro yeast: -1% | RE007 growth inh: -4% | NS1 function inh: -5% | Cruzain inh noDet: -12% | MARV entry inh: ?

> COc1ccc(-c2noc(CC(=O)Nc3ccc(F)cc3F)n2)cc1
  Cruzain inh Det: -3.4% | LASV entry inh: -16%[46.1 µM] | 2A StopGo: -24% | SARS PLpro yeast: . | RE007 growth inh: . | NS1 function inh: . | Cruzain inh noDet: ? | MARV entry inh: .

> CCC1SC(N)=NC1=O (stereo not drawn)
  Cruzain inh Det: -2.2% | LASV entry inh: -4% | 2A StopGo: -22% | SARS PLpro yeast: 3% | RE007 growth inh: -9% | NS1 function inh: 6% | Cruzain inh noDet: 3% | MARV entry inh: 5%

> CC1(C)CC(=O)C(C2C3=C(CC(C)(C)CC3=O)Oc3ccccc32)=C(O)C1 (stereo not drawn)
  Cruzain inh Det: -0.2% | LASV entry inh: 12% | 2A StopGo: -14% | SARS PLpro yeast: 1% | RE007 growth inh: -1% | NS1 function inh: 2% | Cruzain inh noDet: 9% | MARV entry inh: -21%

Additional records follow.
SMILES	Cruzain inh Det	LASV entry inh	2A StopGo	SARS PLpro yeast	RE007 growth inh	NS1 function inh	Cruzain inh noDet	MARV entry inh
CCN(c1ccccc1)S(=O)(=O)c1ccc(Cl)c(NC(=O)CSc2n[nH]c(N)n2)c1	-3.2%	-10%	-29%	16%	.	8%	-4%	-15%
CCC1N=C(SC)NC(C)=C1C(=O)c1ccccc1 (stereo not drawn)	.	?	-9%	2%	0%	.	.	-24%
COc1ccc2nc(NC(=O)CCc3cc(OC)c(OC)c(OC)c3)sc2c1	.	.	?	2%	1%	.	.	-47%[46.1 µM]
Cc1noc(NS(=O)(=O)c2ccc(NC(=O)CS(=O)(=O)c3ccccc3)cc2)c1C	4.0%	10%	-2%	-4%	6%	-14%	-5%	?
Cc1ccc(CC(=O)Nc2ccc(C(=O)N3CCCCC3)cc2)cc1	.	-25%	1%	-4%	6%	8%	.	-26%[46.1 µM]
COc1ccc(CNC(=O)C2CCN(S(=O)(=O)c3ccc(F)cc3)CC2)cc1	0.0%	-3%[46.1 µM]	-19%	.	.	.	3%	4%[46.1 µM]
COc1ccc(N2CC(C)Cn3c2nc2c3c(=O)n(Cc3ccccc3F)c(=O)n2C)c(OC)c1 (stereo not drawn)	-4.8%	11%	-28%	8%	-5%	8%	?	-1%&-1%
CNC(=O)CN(C)S(=O)(=O)c1ccc(F)cc1	5.4%	5%	8%	-2%	9%	1%	6%	10%
Cc1cccc(-n2c(/C=C/c3ccccn3)nc3ccccc3c2=O)c1	.	.	?	1%	-8%	-21%	.	.
CC(C)C[C@H](NC(=O)C1OC1C(=O)O)C(=O)NCCCCN=C(N)N (stereo partly drawn)	0.079µM*	?	.	.	.	-6%	0.04µM*	4.1µM*
Cc1ccc(C(=O)NNC(=O)c2cccc3ccccc23)cc1	.	3%	9%	.	18%	.	.	-25%
O=C(Nn1c(Cc2cccs2)nc2ccccc2c1=O)c1cccs1	-0.1%	23%	-1%	-8%	-5%	-6%	-13%	-4%
CCCn1c(Nc2ccc(Cl)cc2)nc2ccccc21	1.8%	-4%	-3%	-11%	10%	4%	-6%	6%
